DUX4 txn inh: inhibitors of DUX4-driven ZSCAN4 reporter expression, primary screen, 293T cells, Gaussia and Italica luciferase; 293T-iDUX4 ZSCAN4-Gaussia luciferase reporter, 24 h; stronger effect = lower value; activity change, negative = inhibition, % (no concentration beside the values); 37,000 compounds, 0.8% hits;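 active = -10% or lower and over 25 points stronger than a control reporter; inconclusive = -10% or lower with a smaller gap; inactive = above -10%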;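 note: 0% = median of neutral control wells and -100% = median of positive control wells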
DUX4 txn inh difference: further read-out of DUX4 txn inh, marked with its call; Gaussia minus Italica difference, %; measured here: selective DUX4 reporter inhibition;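 worked out from the two reporters; negative = selective loss of the DUX4 reporter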
DUX4 txn inh control: second read-out of DUX4 txn inh, no call of its own (marks repeat the call); activity change, negative = inhibition, %; measured here: Italica tet-on control reporter;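 0 = neutral control and -100 = positive control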
Active calls of the source: *; ? = inconclusive; / = not tested or not shown; ! = not confirmed by another sample. A portion of the library; count on the stated rates, not on these rows.

SMILES	DUX4 txn inh	DUX4 txn inh difference	DUX4 txn inh control
Cc1ccc(S(=O)(=O)N(C)C[C@H]2Oc3c(NC(=O)Nc4cccc5ccccc45)cccc3C(=O)N([C@@H](C)CO)C[C@@H]2C)cc1	3	3	0.2
C[C@H](CO)N1C[C@H](C)[C@H](CN(C)CC2CCOCC2)Oc2ncc(C#CCc3ccccc3)cc2C1=O	-1	1	-2.8
CN1C[C@H]2[C@@H](c3ccccc31)[C@H](CO)N2C(=O)c1ccccn1	2	1	1.2
O=C(C[C@H]1CC[C@H](NC(=O)Nc2ccc(F)cc2)[C@H](CO)O1)NCCN1CCCC1	6	1	5.2
CC(C)CC#Cc1ccc([C@H]2[C@H]3CN(S(=O)(=O)c4cccc(F)c4)CC(=O)N3[C@H]2CO)cc1	?	/	/
CNC[C@@H]1OCCCC[C@@H](C)Oc2ccc(NC(=O)Nc3cccc4ccccc34)cc2C(=O)N([C@H](C)CO)C[C@H]1C	-1	-4	3.5
CN(C)C(=O)c1cc2c(c(-c3cccc(/C=C/c4ccccc4)c3)n1)[C@H](CCO)N([S@@](=O)C(C)(C)C)C2	-1	-7	6.1
CN1CCN(C(=O)C[C@@H]2CC[C@@H]3[C@H](COC[C@@H](O)CN3Cc3ccc4c(c3)OCO4)O2)CC1	1	-3	3.8
O=C(C[C@@H]1CC[C@H]2[C@@H](COC[C@@H](O)CN2C(=O)c2ccncc2)O1)Nc1ccc(-c2ccccc2)cc1	-5	5	-10
O=C(C[C@@H]1C[C@@H]2c3cc(NC(=O)c4cccnc4)ccc3O[C@@H]2[C@@H](CO)O1)NCCN1CCCCC1	0	-2	1.6
CO[C@H]1CN(C)C(=O)c2cc(NC(=O)c3ccc(Oc4ccccc4)cc3)ccc2OC[C@@H](C)NC[C@@H]1C	?	/	/
CN1CCN(C(=O)c2cc3c(c(-c4cccc(-c5ccc(C#N)cc5)c4)n2)[C@@H](CCO)N([S@](=O)C(C)(C)C)C3)CC1	1	0	1.4

Of the compounds above, these contain fluorine:
SMILES	DUX4 txn inh	DUX4 txn inh difference	DUX4 txn inh control
O=C(C[C@H]1CC[C@H](NC(=O)Nc2ccc(F)cc2)[C@H](CO)O1)NCCN1CCCC1	6	1	5.2
CC(C)CC#Cc1ccc([C@H]2[C@H]3CN(S(=O)(=O)c4cccc(F)c4)CC(=O)N3[C@H]2CO)cc1	?	/	/

(listing goes on)
SMILES	DUX4 txn inh	DUX4 txn inh difference	DUX4 txn inh control
C[C@H]1CN([C@@H](C)CO)C(=O)c2ccccc2-c2ccccc2CO[C@@H]1CN(C)Cc1ccccc1C(F)(F)F	?	/	/
C(=C\c1ccc(C2[C@@H]3CN(Cc4ccc5c(c4)OCO5)C[C@H]2N3)cc1)/c1ccccc1 (stereo not given in full)	-41*!	-27*	-13*
C/C=C/c1ccc([C@H]2[C@@H](CO)N(C(=O)c3cnccn3)C23CN(C(=O)C2CC2)C3)cc1	17	15	1.8
CC(C)NC(=O)N[C@@H]1CC[C@@H](CCNC(=O)C2CCOCC2)O[C@H]1CO	-3	-2	-1.4
OC[C@H]1[C@H](c2ccc(C#Cc3ccccc3F)cc2)[C@@H]2CN(Cc3cncnc3)CCCCN12	1	1	-0.3
COc1cccc(-c2ccc([C@@H]3[C@@H](CO)N4CCCCN(CC5CC5)C[C@H]34)cc2)c1	-9	-10	0.9
CC(=O)N1[C@@H](CO)[C@@H](c2ccc(C3=CCCC3)cc2)C12CN(C(=O)NC(C)C)C2	-3	-3	-0.2
COCC(=O)N1[C@H](CO)[C@H](c2ccccc2C2=CCCC2)[C@@H]1C#N	5	8	-2.7
Cc1noc(C)c1NC(=O)N(C)C[C@@H]1Oc2cc(C#CCN(C)C)ccc2S(=O)(=O)N([C@H](C)CO)C[C@H]1C	0	0	-0.6
Cc1ccc(-c2ccc([C@@H]3[C@H](CO)N4C(=O)CN(C(=O)NC(C)C)C[C@@H]34)cc2)cc1	-1	-1	0.1
COc1ccc(C#Cc2ccc([C@@H]3[C@H](CO)N4CCCCN(S(=O)(=O)c5ccccc5)C[C@@H]34)cc2)cc1	?	/	/
COc1ccccc1NC(=O)N(C)C[C@H]1OCc2cnnn2CCCC(=O)N([C@@H](C)CO)C[C@H]1C	6	8	-1.3
CN(C)CC(=O)Nc1ccc2c(c1)[C@H]1C[C@@H](CC(=O)NC3CCCCC3)O[C@@H](CO)[C@H]1O2	12	6	6.7
O=C(C[C@H]1C[C@H]2c3cc(NC(=O)c4cccnc4)ccc3O[C@H]2[C@H](CO)O1)NCc1cccc(F)c1	-7	-4	-3.3
COC(=O)C[C@@H]1CC[C@H]2[C@H](COc3ccc(NS(=O)(=O)c4ccc(C)cc4)cc3C(=O)N2C)O1	4	0	4.4
C[C@H](CO)N1C[C@H](C)[C@@H](CN(C)S(=O)(=O)c2ccc(-c3ccccc3)cc2)OCc2cn(nn2)CCCC1=O	0	2	-1.9
COCC(=O)Nc1ccc2c(c1)[C@@H]1C[C@H](CC(=O)NCc3ccc4c(c3)OCO4)O[C@@H](CO)[C@@H]1O2	1	-9	9.4
COC(=O)C[C@H]1CC[C@H]2[C@@H](COc3ccc(NC(=O)c4cncs4)cc3C(=O)N2C)O1	5	5	-0.7
C[C@@H](NC(=O)[C@@H]1N[C@@H]2c3ccc(C4=CCCC4)c(=O)n3C[C@@H]2[C@H]1CO)c1ccccc1	?	/	/
CC(=O)Nc1ccc2c(c1)C(=O)N(C)[C@@H]1CC[C@@H](CC(=O)NCCCN3CCOCC3)O[C@@H]1CO2	2	-2	3.3
COc1ccccc1-c1cnc2c(c1)C(=O)N([C@H](C)CO)C[C@H](C)[C@H](CN(C)C(=O)CC1CC1)O2	-5	-7	2.5
CO[C@@H]1CN(C)C(=O)c2cc(NC(=O)C3CCOCC3)ccc2OC[C@@H](C)NC[C@@H]1C	12	12	-0.4
CO[C@H]1CN(C)C(=O)c2cc(NS(C)(=O)=O)ccc2OC[C@H](C)N(C(=O)CC2CC2)C[C@H]1C	-3	-2	-1.4
O=C(Nc1ccccc1F)N1C[C@H]2[C@@H](c3ccccc31)[C@@H](CO)N2C(=O)Nc1ccccc1	-1	-1	0.0
O=C(C1CC1)N1CC2(C1)[C@@H](c1ccccc1)[C@@H](CO)N2Cc1ccccc1F	-2	1	-2.1
C[C@@H]1CN([C@@H](C)CO)C(=O)c2c(c3ccccc3n2C)-c2ccccc2CO[C@@H]1CN(C)S(=O)(=O)c1cccs1	10	5	4.9
COc1cc(CN2CC3(CN(C(=O)NC(C)C)C3)c3c(n(C)c4cc(OC)ccc34)[C@@H]2CO)cc(OC)c1	17	3	14
Cc1ccccc1S(=O)(=O)N1C[C@@H](O)COC[C@H]2O[C@H](CC(=O)NCc3ccccc3Cl)CC[C@@H]21	-4	-7	3.6
Cc1ccccc1-c1ccc([C@H]2[C@H](CO)N3C(=O)CN(C(=O)c4ccncc4)C[C@@H]23)cc1	2	-4	5.9
O=C(NCc1ccccc1)[C@@H]1[C@@H](CO)[C@@H]2Cn3c(ccc(-c4cccnc4)c3=O)[C@@H]2N1Cc1cocn1	-4	1	-4.9
COCC(=O)N1C[C@@H]2[C@H](c3ccccc31)[C@H](CO)N2C(=O)Nc1ccccc1Cl	2	-4	6.6
CCCNC(=O)N1C[C@H](O)COC[C@H]2O[C@H](CC(=O)O)CC[C@@H]21	7	-1	7.5
C[C@H]1CN([C@@H](C)CO)C(=O)c2c(c3ccccc3n2C)-c2ccccc2CO[C@H]1CN(C)C(=O)Nc1ccc(-c2ccccc2)cc1	?	/	/
C[C@@H](NC(=O)[C@H]1[C@H](CO)[C@H]2Cn3c(cccc3=O)[C@@H]1N2Cc1ccncc1)c1ccccc1	0	2	-2.5
CCS(=O)(=O)NCC[C@H]1CC[C@@H](NS(=O)(=O)c2ccccc2C)[C@@H](CO)O1	1	-1	2.8
Cc1cccc(-c2ccc([C@@H]3[C@@H](CO)N4CCCCN(C(=O)NC(C)C)C[C@@H]34)cc2)c1	-10	-6	-3.8
O=C(C1CCOCC1)N1CC2(C1)[C@H](c1ccccc1)[C@@H](CO)N2CCC(F)(F)F	0	4	-4.6
O=C(C1CCCCC1)N1[C@H](CO)[C@@H](c2ccccc2)C12CN(Cc1cccc(Cl)c1)C2	?	/	/
C[C@@H]1CN([C@H](C)CO)S(=O)(=O)c2ccc(Br)cc2O[C@@H]1CN(C)C(=O)C1CC1	2	0	1.4
C[C@@H]1CN([C@H](C)CO)C(=O)c2cccc(NC(=O)Nc3ccc4c(c3)OCO4)c2O[C@@H]1CN(C)Cc1ccc(C(=O)Nc2ccccc2N)cc1	1	1	-0.4
O=C(C1CC1)N1CC2(C1)[C@H](c1ccccc1)[C@H](CO)N2C(=O)c1cccnc1	4	-5	9.4
O=C(Nc1cccc(F)c1)N1C[C@@H]2N[C@H](C1)C2c1ccc(-c2ccc(F)cc2)cc1 (stereo not given in full)	9	1	7.5
O=C(c1ccccn1)N1C[C@H]2[C@@H](c3ccccc31)[C@@H](CO)N2C(=O)Nc1ccccc1	1	2	-0.4
CCc1csc(N2[C@@H](C#N)[C@H](c3ccc(-c4ccc(F)cc4)cc3)[C@@H]2CO)n1	-3	-1	-1.3
CN1c2ccc(Br)cc2[C@@H]2[C@@H](CCN2C(=O)Nc2ccc(F)cc2)[C@@H]1CO	-3	-5	1.2
C[C@@H]1CN([C@H](C)CO)C(=O)c2cc(-c3ccc(C(=O)N(C)C)cc3)cnc2O[C@@H]1CN(C)C(=O)c1cccnc1	2	-3	4.5
O=C(C[C@H]1CC[C@@H]2[C@H](COC[C@@H](O)CN2Cc2ccc(F)cc2)O1)NCc1ccncn1	0	1	-1.2
CCCNC(=O)N1CC2(C1)[C@H](c1ccccc1)[C@H](CO)N2Cc1ccccn1	3	-3	5.2

Profiles, looked up by structure. Screens in order: DUX4 txn inh, DUX4 txn inh difference, DUX4 txn inh control
Profile of `C[C@@H](NC(=O)[C@@H]1N[C@@H]2c3ccc(C4=CCCC4)c(=O)n3C[C@@H]2[C@H]1CO)c1ccccc1` → ?, /, /
Profile of `C[C@H]1CN([C@@H](C)CO)C(=O)c2c(c3ccccc3n2C)-c2ccccc2CO[C@H]1CN(C)C(=O)Nc1ccc(-c2ccccc2)cc1` → ?, /, /
Profile of `O=C(C1CC1)N1CC2(C1)[C@H](c1ccccc1)[C@H](CO)N2C(=O)c1cccnc1` → 4, -5, 9.4
Profile of `O=C(C[C@@H]1C[C@@H]2c3cc(NC(=O)c4cccnc4)ccc3O[C@@H]2[C@@H](CO)O1)NCCN1CCCCC1` → 0, -2, 1.6

An excerpt from above in order of the DUX4 txn inh value, largest number first.
| compound | DUX4 txn inh |
| --- | --- |
| O=C(C1CC1)N1CC2(C1)[C@H](c1ccccc1)[C@H](CO)N2C(=O)c1cccnc1 | 4 |
| O=C(C1CCOCC1)N1CC2(C1)[C@H](c1ccccc1)[C@@H](CO)N2CCC(F)(F)F | 0 |
| CN1c2ccc(Br)cc2[C@@H]2[C@@H](CCN2C(=O)Nc2ccc(F)cc2)[C@@H]1CO | -3 |

Other compounds.
SMILES	DUX4 txn inh	DUX4 txn inh difference	DUX4 txn inh control
O=C(CCN1CCCCC1)NCC[C@@H]1CC[C@H](NC(=O)Cc2cccnc2)[C@H](CO)O1	3	-5	7.3
COc1ccc(NC(=O)N(C)C[C@@H]2OCc3ccccc3-c3c(n(C)c4ccccc34)C(=O)N([C@@H](C)CO)C[C@H]2C)c(OC)c1	3	3	0.5
CCCC(=O)N1CC2(C1)CN(C(=O)COC)[C@@H](CO)c1c2c2ccc(OC)cc2n1C	16	-1	17
CNC(=O)C[C@@H]1CC[C@H]2[C@H](COc3ccc(NC(=O)c4ccccc4OC)cc3C(=O)N2C)O1	0	-1	0.6
CC(C)CC#Cc1ccc([C@H]2[C@H](CO)N3CCCCN(S(=O)(=O)Cc4ccccc4)C[C@@H]23)cc1	2	-11	13
C[C@@H]1CCCCO[C@H](CN(C)S(=O)(=O)c2ccc(Cl)cc2)[C@H](C)CN([C@@H](C)CO)C(=O)c2cc(NS(=O)(=O)c3cn(C)cn3)ccc2O1	0	-1	0.9
CNC[C@H]1OCCCC[C@@H](C)Oc2ccc(NS(=O)(=O)c3cn(C)cn3)cc2C(=O)N([C@H](C)CO)C[C@@H]1C	1	1	-0.5
CCN(C[C@H]1N[C@H](CO)[C@@H]1c1ccc(-c2cccc(F)c2)cc1)C(=O)COC	-1	2	-3.0
CC(C)(C)[S@](=O)N1Cc2cc(C(=O)NC3CCC3)nc(-c3cccc(-c4ccccc4F)c3)c2[C@@H]1CCO	5	2	2.5
O=C(NCC[C@H]1CC[C@@H](NS(=O)(=O)c2ccc(Cl)cc2)[C@H](CO)O1)Nc1ccc(F)cc1	4	5	-1.6
O=C([C@@H]1[C@@H](CO)[C@@H]2Cn3c(cccc3=O)[C@@H]2N1Cc1ccccc1Cl)N1CCOCC1	4	-2	5.4
COc1ccc2c3c(n(C)c2c1)[C@H](CO)N(CC1CCOCC1)CC31CN(C(=O)c2cccc(F)c2)C1	?	/	/
C[C@H](CO)N1C[C@H](C)[C@@H](CN(C)C(=O)c2ccc3c(c2)OCO3)Oc2ncc(C3=CCCC3)cc2C1=O	-4	2	-6.3
N#C[C@@H]1[C@H](c2ccccc2-c2ccccc2F)[C@@H](CO)N1C(=O)C1CCC1	3	0	3.3
C[C@H](NC(=O)C[C@@H]1C[C@H]2c3cc(NC(=O)NC4CCCCC4)ccc3O[C@H]2[C@H](CO)O1)c1ccccc1	1	4	-2.7
CCNC(=O)C[C@H]1CC[C@@H]2[C@@H](COc3ccc(NC(C)=O)cc3C(=O)N2C)O1	0	-1	1.8
COC(=O)C[C@H]1CC[C@@H]2[C@H](COC[C@H](O)CN2C(=O)Nc2ccccc2OC)O1	12	9	2.9
CN(C)CC(=O)Nc1ccc2c(c1)[C@H]1C[C@@H](CC(=O)NCc3ccc4c(c3)OCO4)O[C@H](CO)[C@H]1O2	9	4	4.4
O=C(C[C@H]1CC[C@H]2[C@@H](COC[C@@H](O)CN2CCc2ccccc2)O1)NCCCN1CCOCC1	2	-1	3.6
